# Assay outcomes: PubChem BioAssay, Center for Chemical Genomics, University of Michigan
# TAR Tat displ: HIV-1 TAR-Tat binding disruption | HIV-1 TAR RNA, Tat peptide displacement FRET; hits give high values | z-score (no concentration beside the values) | 0.6% of 100,000 active | AID 1259389;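 further: score is relative to mean and SD of negative controls; some compounds called inactive have numbers as strong as hits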
# CDC25B-CDK2 inh: human CDC25B-CDK2/CyclinA binding inhibition. HTRF CDC25B-CDK2/CyclinA binding, anti-His/anti-Flag; hits give high values. z-score (no concentration beside the values). 0.72% of 94,000 active. AID 1259370;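 further: score is relative to mean and SD of negative controls; strong numbers were not always called active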
# * = called active by the depositor; x = no result given.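 How the source made its calls: active means z-score from 3 up in half or more of its runs; inactive means the rest.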 Outcome played no part in choosing rows; 0.94% or so of the library scored in one or more.
# The opening 5 compounds (preview)
molecule,TAR Tat displ,CDC25B-CDK2 inh
O=C(Cc1ccccc1)NC1CCN(S(=O)(=O)c2cc(Cl)c(Cl)cc2Cl)CC1,x,0.25
Cc1cccc(NC(=O)c2c(C)oc3ncnc(N4CCOCC4)c23)n1,1.3,x
Cc1oc2c(CN(C)C)c(O)ccc2c(=O)c1Oc1ccc2ccccc2c1,x,-0.56
Cc1cccc(C(=O)Nc2cnc3sc4cc(C)ccc4n3c2=O)c1,-0.16,-1.7
CCOC(=O)c1c(NC(=O)c2cccs2)sc2c1CCN(C(C)C)C2,-0.03,x

# The listing, from the start:
molecule,TAR Tat displ,CDC25B-CDK2 inh
O=C(Cc1ccccc1)NC1CCN(S(=O)(=O)c2cc(Cl)c(Cl)cc2Cl)CC1,x,0.25
Cc1cccc(NC(=O)c2c(C)oc3ncnc(N4CCOCC4)c23)n1,1.3,x
Cc1oc2c(CN(C)C)c(O)ccc2c(=O)c1Oc1ccc2ccccc2c1,x,-0.56
Cc1cccc(C(=O)Nc2cnc3sc4cc(C)ccc4n3c2=O)c1,-0.16,-1.7
CCOC(=O)c1c(NC(=O)c2cccs2)sc2c1CCN(C(C)C)C2,-0.03,x
CCOC(=O)c1c(C)c(C(=O)NCCC2=CCCCC2)c(C)n1CC,x,-2.3
COCCCNC(=O)c1ccc(N2CCSc3ccccc32)s1,0.97,x
O=C(c1nc(-c2cccnc2)no1)N1CCOCC1,1.4,x
Cn1cc(Br)c(-c2cccc(NC(=O)c3ccccc3Cl)c2)n1,x,-0.28
CCSc1nc(N)nc(C(C)C)n1,x,-2.1
C=CCOc1ccc(-c2nc3c(c(=O)[nH]2)Cc2cccc(OC)c2O3)cc1,2.1,-0.72
O=S1(=O)CCCCN1c1ccc(S(=O)(=O)N2CCN(c3ccccc3F)CC2)cc1,0.21,x
CC(C)CCNC(=O)C1(C)CCC(=O)N1CCC(C)C (configuration not stated),0,-1.5
COCCOC(=O)C1=C(C)NC2=C(C(=O)CC(C)(C)C2)C1c1ccccc1OCc1ccccc1 (configuration not stated),0.04,-1.1
COc1cccc(NC(=O)c2c(C)cc(C)cc2CC(C)(C)C(=O)O)c1,x,-1.4

# Record cards (already shown).
# Shown for CCSc1nc(N)nc(C(C)C)n1 : TAR Tat displ = x; CDC25B-CDK2 inh = -2.1
# Shown for COCCOC(=O)C1=C(C)NC2=C(C(=O)CC(C)(C)C2)C1c1ccccc1OCc1ccccc1 (configuration not stated) : TAR Tat displ = 0.04; CDC25B-CDK2 inh = -1.1

# (continued)
molecule,TAR Tat displ,CDC25B-CDK2 inh
COc1ccc(NC(=O)C2c3ccccc3C(=O)N3CCc4ccccc4C23)c(OC)c1 (configuration not stated),x,0.95
CC1=C(C(=O)OCC2CCCO2)C(c2ccc(F)cc2)C2=C(CC(c3cccs3)CC2=O)N1 (configuration not stated),1.7,-1.2
Cc1nc2sccn2c(=O)c1NC(=O)c1ccccc1,1.4,x
O=C(NCc1ccc(Cl)cc1)Nc1ccc2snnc2c1,1.4,-5.8
COc1ccc(N(Cc2cccs2)C(=O)NC2CCCCC2)cc1,0.73,-0.63
Cc1cc(=O)n2[nH]c(-c3ccc(Cl)cc3)nc2n1,2.3,-0.35
CC1=C(C(=O)OC(C)C)C(c2cccs2)c2c(nc(SCC(C)C)[nH]c2=O)N1 (configuration not stated),-0.62,-0.78
CC(C)NC(=S)NCCc1ccncc1,x,-1.2
CCOC(=O)C(Sc1cc(-c2ccccc2)nc2ncnn12)C(C)=O (configuration not stated),x,-1.3
COC(=O)CSc1nnc(-c2cccc(O)c2)o1,1.7,x
Cc1cc(OC(=O)c2c(C)cc(OC(=O)c3c(C)cc(O)cc3O)cc2O)cc(O)c1C(=O)O,0.04,x
N=C1C(c2nc3ccccc3[nH]2)=C(O)CN1c1cccc(O)c1,-7,-1.5
Clc1ccc(-c2nnn3c2nc(N2CCOCC2)c2ccccc23)cc1,0.4,-1.1
CC1CCCC(NC(=O)C2CCC(CNc3c(N4CCCCC4)c(=O)c3=O)CC2)C1C (configuration not stated),1.6,0.21
CN1CCN(c2c(C(=O)c3ccccc3)cnc3cc4c(cc23)OCO4)CC1,-2.3,-1.1
CCOCc1cc(CN2CCCC2)c(O)c2ncccc12,0,4.2
O=C(Nc1ccccc1)Nc1ccc(Cl)cc1SCc1ccccc1,x,-1.2
Cc1oc(-c2ccccc2)cc1C(=O)N1CCN(c2ncc(C(F)(F)F)cc2Cl)CC1,x,-1.3
Cc1ccc(CN2N=NC3C(=O)N(c4ccc(C)cc4)C(=O)C32)cc1 (configuration not stated),1.2,-0.28
CC1CCCC(C)N1C(=O)Nc1cn(C)c(=O)c2ccccc12 (configuration not stated),-1.4,x
CC1(C)NC(=O)N(c2ccc([N+](=O)[O-])c(C(F)(F)F)c2)C1=O,-1.4,-2.3
CC1CSc2ccc(S(=O)(=O)Nc3ccc(F)c(Cl)c3)cc2NC1=O (configuration not stated),0.42,x
O=C(NC1CCCCC1)N1CCn2cccc2C1Cc1ccccc1 (configuration not stated),-0.86,x
Cc1ccc(CNC(=S)NCCO)cc1,x,-1.3
CCn1c2ccccc2c2cc(CN3CCN(Cc4c[nH]c5ccccc45)CC3)ccc21,x,4
COc1ccc(C2=C(C)C(Nc3ccc(C)c(Cl)c3)=NS2(=O)=O)cc1,0.28,-1.9
c1cncc(CNc2ccc3nncn3n2)c1,-0.27,-0.92
COc1ccc(-c2coc3cc(OC)cc(OC)c3c2=O)cc1,0.49,x
O=C(C1CCCN(c2ccc(N3CCOCC3)nn2)C1)N1CCC(N2CCCCC2)CC1 (configuration not stated),-2.8,x
CCCOc1ccccc1C1C(C(=O)OC(C)C)=C(C)NC2=C1C(=O)CC(C)(C)C2 (configuration not stated),10,0.78
CCOC(=O)C(C)Sc1ccc2nnc(CCNS(=O)(=O)c3ccccc3)n2n1 (configuration not stated),1.2,x
Cc1nc(-c2ccccc2)sc1C(=O)Nc1c(C)nc2ccc(Cl)cn2c1=O,2.6,x
COCCNc1ncnc2scc(-c3ccc(OC)cc3)c12,0.72,x
CCC(Nc1n[nH]c(=O)[nH]c1=O)C(=O)O (configuration not stated),x,-0.64
O=C1NC(c2ccc(O)cc2)C(C(=O)c2ccc(F)cc2)C(O)(C(F)(F)F)N1 (configuration not stated),x,-0.97
CCOc1nc(-c2ccc(OC)cc2)ccc1-c1noc(CC)n1,-1.6,-0.99
c1ccc(-c2noc(-c3ccncc3)n2)cc1,-0.35,0.08
CCc1c(C)nc2ncnn2c1Nc1ccc(C)cc1,0.74,-1.4
CCCOC(=O)C1=C(C)NC2=C(C(=O)C(C(=O)OC)C(C)C2)C1c1ccc(-c2ccccc2)cc1 (configuration not stated),-0.69,-0.3
COc1ccc(Cc2nc3c4c5c(sc4ncn3n2)CCCC5)cc1OC,-0.1,-1.3
CCOC(=O)c1c(NC(=O)C2(S(=O)(=O)c3ccccc3)CC2)sc(C)c1C,0.86,-0.56
CCn1c(SCC(=O)c2c(C)[nH]c3ccccc23)nnc1-c1cccs1,-0.75,-0.67
CC1=CC(C)(C)N(C(=O)CN2C(=O)CCC2=O)c2ccccc21,1.4,-1.4
N#C/C(=C\c1ccc(Oc2ccccc2)nc1)S(=O)(=O)c1ccccc1,x,-0.17
Cc1nc2c3ccccc3nc(SCC(=O)Nc3ccccc3F)n2n1,0.78,x
Cc1cc(C)n2c(=O)n(CC(=O)Nc3ccc(Br)cc3)nc2n1,0.6,x
N#CC1=C2SCN(c3ccccc3F)CN2C(=O)CC1c1ccc(Br)cc1 (configuration not stated),-0.67,-2.4
C#CCn1c(C2CC(=O)N(c3ccccc3)C2)nc2ccccc21 (configuration not stated),0.6,-1.2
COc1cccc(-c2csc(-c3c(N)c(C(=O)c4ccccc4)n4ccccc34)n2)c1,0.89,-1
COc1cc(NC(=O)N2CCSc3ncccc32)cc(OC)c1,-0.73,x
Cc1sc2ccccc2[n+]1C,x,-2
Cc1ccc(Cl)cc1NC(=O)Nc1c(C)n(C)n(-c2ccccc2)c1=O,0.61,-1.1
Cc1ccc(-n2c(COc3ccccc3)n[nH]c2=S)cc1,x,-0.01
CCOC(=O)c1c(NC(=O)c2nc(SCC)ncc2Cl)sc2c1CCCC2,0.23,-0.3
Cc1ccc(-c2nnc(SCC#CCOC(=O)c3ccco3)o2)cc1,0.36,0.05
COc1ccccc1C1c2c(-c3ccccc3)n[nH]c(=O)c2Nc2nnnn21 (configuration not stated),0.89,-1.3
CC(=O)N(c1ccc(N(C(C)=O)S(=O)(=O)c2cccs2)cc1)S(=O)(=O)c1cccs1,x,0.28
O=C(C1=Cc2sc3c(c2CS1)CCCC3)N1CCN(c2ncccn2)CC1,4.4,x
O=S1(=O)C[C@H](NCCc2c[nH]c3ccccc23)[C@@H](S(=O)(=O)c2cccs2)C1,-3.6,-0.59
O=C(Nc1ccccc1-c1nc2ccccc2[nH]1)c1ccc(S(=O)(=O)N2CCCC2)cc1,x,-1

# (continued)
molecule,TAR Tat displ,CDC25B-CDK2 inh
CC(=O)N1CCOc2cc(S(=O)(=O)Nc3cccnc3)c(Cl)cc21,0.54,x
Cc1cc(-c2ccc(S(=O)(=O)Nc3cccc(Br)c3)o2)n[nH]1,1.6,x
O=C(CC1=NS(=O)(=O)c2ccccc2N1)Nc1cc(F)ccc1F,1.7,x
COC(=O)C(C)Sc1nnc(CSc2ncccn2)n1-c1ccccc1 (configuration not stated),0.29,-0.9
CC1=C(C(=O)OCc2ccccc2)C(c2ccsc2)C2=C(CC(C)(C)CC2=O)N1 (configuration not stated),0.78,x
Cc1ccc(-n2c(=O)[nH]c3c(C(N)=O)nc(-c4ccc(C(C)C)cc4)nc32)cc1C,0.98,x
COc1ccc(-n2nnc(-c3nc(-c4ccncc4)no3)c2N)cc1,-1.6,x
O=C(NC1CCCC1)C1CCN(c2ncnc3c2nc2n3CCCCC2)CC1,-0.16,x
CCOC(=O)C1CCN(S(=O)(=O)c2sc3ccc(Cl)cc3c2C)CC1,x,-1.3
CCOc1ccc(Nc2nc(N)nc(CN3CCN(c4ccc(F)cc4)CC3)n2)cc1,1.2,x
O=C(Cn1cccc1)N1CCc2ccccc21,-0.6,-1.9
CCCNC(=O)Nc1cc(S(=O)(=O)CC)ccc1O,x,4.4
COc1ccc(S(=O)(=O)N2c3ccccc3NC3=C(C(=O)CCC3)C2c2cccs2)cc1 (configuration not stated),0.67,x
CCc1nc2nc3c(cn2n1)C(=O)CC(c1ccc(C(C)C)cc1)C3 (configuration not stated),-0.04,0.04
COc1ccc(Cc2nnc3n2N=C(c2ccccc2)CS3)cc1,1.8,x
Nc1nnc(SCC(=O)Nc2cccc(C(F)(F)F)c2)s1,x,-1.2
Cc1ccc(N2C(=O)SC(Nc3ccccc3C(=O)O)C2=O)cc1C (configuration not stated),-0.21,-0.03
Cc1ccc(NCCNc2cc(C)nc3c2ccc2ccccc23)cc1,x,-0.98
COc1ccc(-n2ncc(NC(=O)N3CCN(c4ccc(C(F)(F)F)cn4)CC3)c2C)cc1,x,-2.2
CCOC(=O)C1CCN(c2c(N3CCCC(C(=O)OCC)C3)c(=O)c2=O)CC1 (configuration not stated),-0.54,-0.71
O=C(c1ccccc1)N1CCN(Cc2cc(=O)n3nc(-c4ccccc4)sc3n2)CC1,0.46,x
Cc1ccc(CN2CCc3nc(N4CCN(C)CC4)ncc3C2)s1,0.78,x
CCOc1ccc(OCC)c(NS(=O)(=O)c2cc(Br)cc3c2N(C(=O)CC)CC3)c1,1.4,-1.1
Cc1nnsc1C(=O)NN(C)c1ccc([N+](=O)[O-])cn1,x,-2.5
CN(C)C(=O)c1ccc2c(c1)ncn2CCNC(=O)NC1CCCCC1,0.93,x
CNc1cc(C#N)c2cc(Br)ccc2n1,x,-0.31
CC(=O)N1c2ccccc2C(=O)C1N1CCN(Cc2ccc3c(c2)OCO3)CC1 (configuration not stated),-1.4,x
c1csc(-c2nn3c(-c4ccncc4)nnc3s2)c1,1.4,-0.84
CCC1(C)Cc2c(sc3nc(SCCOC)nc(N)c23)CO1 (configuration not stated),-0.87,-1.1
COCCOC(=O)c1c(C)oc2ccc(OC(=O)c3cc4ccccc4o3)cc12,2.5,-0.78
CCC(C(=O)N1CCCc2ccccc21)n1cnc2onc(C)c2c1=O (configuration not stated),0.52,x
Cc1ccc(-n2ncc3c(N4CCCCCC4)ncnc32)c(C)c1,x,-3
CCOC(=O)c1cnc(SCc2nc(-c3cccc(Br)c3)oc2C)nc1N,0.81,x
O=C(CN1c2ccccc2NC2=C(C(=O)CCC2)C1c1ccco1)NCc1ccccn1 (configuration not stated),-8.6,x
Cc1ccc2c(=O)cc(C(=O)Nc3sc4c(c3C#N)CCCC4)oc2c1C,0.64,-1.5
CCS(=O)(=O)c1nc(S(=O)(=O)c2ccc(Cl)cc2)c(NCCN(C)C)s1,0.1,0.26
O=C(CCN1C(=O)C2C3C=CC(CC3)C2C1=O)N1CCN(c2ccc(F)cc2)CC1 (configuration not stated),x,-0.26
Cc1ccc(C(=O)Nc2cnc3c(C)cccn3c2=O)cc1,-0.43,0.24
CC(=O)Nc1ccc(-c2nc(-c3ccc4c(c3)ncn4C3CCCC3)no2)cc1,0.68,x
Cc1ccc(-c2nc3ccccc3o2)cc1NC(=O)c1ccc2c(c1)OCCO2,x,-4.1
CN(CCCNC(=O)CC1Oc2ccccc2NC1=O)C1CCCCC1 (configuration not stated),1.3,-0.72
